Source: PubChem (several laboratories)
Mtb hypoxia rep = Mtb hypoxia fluorescent reporter inhibition; M. tuberculosis hypoxia-regulated fluorescent reporter, fluorescence; fluorescence inhibition, % (no concentration beside the values); actives 0.1% (n = 300,000);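 active = 35 to 45% if threefold the growth effect, above 45% if 1.5-fold the growth effect; inactive = the rest, general growth blockers included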;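 also: wells of about 50 µL received 100 nL stock; 0% = vehicle wells and 100% = reference inhibitor wells; whole bacteria with a GFP reporter of the hypoxia response; strong numbers were not always called active; many hits fall short of the cut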
Bead autofluor = compound fluorescence in toxin protease inhibitor counterscreen; compound autofluorescence counterscreen, microsphere flow cytometry; active compounds read high; fluorescence intensity (no concentration beside the values); actives 3.1% (n = 360,000);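 active = at least 3 SD above the mean of all compounds, about 16000 in these data; inconclusive = too few beads counted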;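 also: 100 nL of 1 mM stock went into each well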
Sa RN4220 lethal = S. aureus RN4220 growth inhibition; OD600, 16 h; inhibition, % (no concentration beside the values); actives 0.33% (n = 330,000); AID 1259311;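 active = z-score of -3 or lower and OD600 up to 0.18 on both plates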;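 also: plate controls were untreated cells for no effect and reference antibiotic for full effect; stock transfer was 100 nL into about 80 µL; one replicate is shown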
Sa ugtP lethal = kills S. aureus RN4220 lacking UgtP | S. aureus RN4220 ugtP deletion, OD600 growth, 16 h; some inactives read as strong as hits | growth inhibition, % (no concentration beside the values) | actives 0.54% (n = 330,000);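 active = z-score under -3 and OD600 up to 0.15 on both plates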;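 also: plate controls were untreated wells for no effect and antibiotic for full effect; wells of about 80 µL received 100 nL stock; the first replicate is given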
BJeLR lethal = BJeLR cell viability loss; BJeLR (HRASV12) viability, CellTiter-Glo ATP luminescence, 48 h; reference of the scale not given here; inhibition, % (no concentration beside the values); actives 0.17% (n = 300,000); AID 1554;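 active = replicate mean above 50%; inconclusive = above 50% but judged a plate artefact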;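 also: 50 nL library stock added to about 25 µL; numbers are from one replicate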
PrP UTR inh = inhibition of PrP 5' UTR reporter expression; cell-based PrP 5' UTR mRNA reporter, plate reader; inhibition, % (no concentration beside the values); actives 0.35% (n = 340,000); AID 488862;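 active = every replicate at 50% or more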;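 also: 0 = median of the neutral control wells; tested in H4 reporter cells; numbers are from one replicate; inactives centre near -14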
Mtb hypoxia rep growth = further read-out of Mtb hypoxia rep, marked with its call; growth inhibition, %; measured here: M. tuberculosis growth (absorbance);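 0% = vehicle and 100% = reference antibiotic; read after six days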
Numbers without * were called inactive; ? = inconclusive; / = not tested or not shown.

SMILES | Mtb hypoxia rep | Mtb hypoxia rep growth | Bead autofluor | Sa RN4220 lethal | Sa ugtP lethal | BJeLR lethal | PrP UTR inh
C#CCn1c(O)c(N=NC(=O)CNC(=O)/C=C/c2ccccc2)c2ccccc21 | 0 | -3 | 5566 | 2.9 | 4 | -2 | -3
CCOC(=O)CNC(=O)Nc1cc(C(C)(C)C)nn1-c1ccccc1 | 13 | 12 | 2217 | -1.7 | 7 | 1 | -1
CN(C)C(=S)c1ccc2ccccc2n1 | 6 | 7 | 5477 | 4.8 | -2 | -4 | -14
COc1ccccc1CN1CCNC(=O)C1CC(=O)NCc1csc(C)n1 (configuration not stated) | 8 | 8 | 2320 | -0.4 | 10 | -5 | -22
CN1CC(C(=O)NC2(C)OC3(O)C4CCCN4C(=O)C(Cc4ccccc4)N3C2=O)CC2c3cccc4[nH]cc(c34)CC21 (configuration not stated) | -10 | 4 | / | 3.0 | -8 | / | /
CCOc1ccc(Br)cc1S(=O)(=O)NCCN(C)C | / | / | 4547 | 1.0 | -6 | 1 | -2
CCOC(=O)CNC(=O)CSc1nnnn1-c1ccc(C)c(C)c1 | / | / | 2456 | 3.5 | -4 | 2 | -7
Cc1ccc(C(=O)NCC(=O)OCCOc2ccccc2Cl)cc1 | 2 | -2 | 4170 | 2.0 | 10 | -11 | -14
Oc1ccc(N2CCN(Cc3cc4c(cc3Br)OCCO4)CC2)cc1 | 1 | 0 | 3616 | 5.6 | 9 | 4 | -16
CCOC(=O)Nc1c(Cl)n(C)c(=O)n(C)c1=O | 1 | 3 | 4299 | 2.1 | -1 | -1 | -25
Cc1cc(Br)ccc1NC(=O)CN(C)C(=O)C1=COCCO1 | 2 | 7 | 3774 | 0.0 | 0 | / | -9
Cc1cc(NC(=O)CCCn2cnc([N+](=O)[O-])n2)no1 | 14 | 6 | 4440 | -2.7 | 4 | -7 | -12

Given with values under each structure: 6 of the compounds above.
Sequence of screens: Mtb hypoxia rep, Mtb hypoxia rep growth, Bead autofluor, Sa RN4220 lethal, Sa ugtP lethal, BJeLR lethal, PrP UTR inh
- COc1ccccc1CN1CCNC(=O)C1CC(=O)NCc1csc(C)n1 (configuration not stated)
→ 8, 8, 2320, -0.4, 10, -5, -22
- CN1CC(C(=O)NC2(C)OC3(O)C4CCCN4C(=O)C(Cc4ccccc4)N3C2=O)CC2c3cccc4[nH]cc(c34)CC21 (configuration not stated)
→ -10, 4, /, 3.0, -8, /, /
- CCOc1ccc(Br)cc1S(=O)(=O)NCCN(C)C
→ /, /, 4547, 1.0, -6, 1, -2
- CCOC(=O)CNC(=O)CSc1nnnn1-c1ccc(C)c(C)c1
→ /, /, 2456, 3.5, -4, 2, -7
- Cc1ccc(C(=O)NCC(=O)OCCOc2ccccc2Cl)cc1
→ 2, -2, 4170, 2.0, 10, -11, -14
- Oc1ccc(N2CCN(Cc3cc4c(cc3Br)OCCO4)CC2)cc1
→ 1, 0, 3616, 5.6, 9, 4, -16

More records follow:
SMILES | Mtb hypoxia rep | Mtb hypoxia rep growth | Bead autofluor | Sa RN4220 lethal | Sa ugtP lethal | BJeLR lethal | PrP UTR inh
Cc1ccc(NC(=O)CSc2nc(=O)cc(N)n2CCc2ccccc2)cc1 | 11 | -3 | 2147 | 3.1 | 3 | 1 | -28
COc1cc(C)c(Cl)cc1S(=O)(=O)n1cnc(C)c1 | 10 | 2 | 9358 | 6.4 | 0 | 4 | -24
COc1ccc(NC(=O)Nc2ccc(Cc3ccncc3)cc2)c(OC)c1 | 8 | -1 | 2457 | 0.0 | 11 | -2 | -11
Cc1sc(NC(=O)C2=COCCO2)c(C#N)c1C | 3 | 13 | ? | -1.4 | 1 | -4 | -94
COc1cc(/C=C(\NC(C)=O)C(=O)N2CCCCC2)ccc1OC(C)=O | 0 | -5 | 3912 | 1.7 | 4 | -3 | -8
O=C(OCC(=O)N1N=C(c2ccc(Cl)cc2)CC1c1ccco1)c1cncc(Br)c1 (configuration not stated) | 4 | 8 | 4013 | 3.4 | -37 | / | -23
Cc1ccc(S(=O)(=O)NCc2ccccc2)cc1C(=O)NCCc1ccc(S(N)(=O)=O)cc1 | 1 | 16 | 5603 | 3.7 | 0 | / | /
CC(NC(=O)COc1ccc(/C=N/NC(=O)C(=O)Nc2ccccc2Br)cc1)c1ccccc1 (configuration not stated) | / | / | 3485 | / | / | -9 | 2
O=C(C(=O)N1CCN(c2ccccc2F)CC1)c1cn(CC(=O)N2CCOCC2)c2ccccc12 | 13 | 9 | 5299 | 3.0 | 7 | 8 | -18
COc1ccc(Cl)cc1NC(=O)C/C(C)=N/NC(=O)CC#N | / | / | 3061 | / | / | 0 | -18
Cc1ccc(S(=O)(=O)N(CC(=O)N2CCCCC2)c2cccc(C)c2)cc1 | / | / | 2905 | 8.4 | 5 | 1 | -14
O=C(NCCS(=O)(=O)N1CCC2(CC1)OCCO2)c1ccccc1 | 8 | 6 | ? | 1.0 | 10 | 1 | -15

Reprinted from the entries so far, six compounds:
SMILES | Mtb hypoxia rep | Mtb hypoxia rep growth | Bead autofluor | Sa RN4220 lethal | Sa ugtP lethal | BJeLR lethal | PrP UTR inh
Cc1ccc(S(=O)(=O)NCc2ccccc2)cc1C(=O)NCCc1ccc(S(N)(=O)=O)cc1 | 1 | 16 | 5603 | 3.7 | 0 | / | /
CC(NC(=O)COc1ccc(/C=N/NC(=O)C(=O)Nc2ccccc2Br)cc1)c1ccccc1 (configuration not stated) | / | / | 3485 | / | / | -9 | 2
O=C(C(=O)N1CCN(c2ccccc2F)CC1)c1cn(CC(=O)N2CCOCC2)c2ccccc12 | 13 | 9 | 5299 | 3.0 | 7 | 8 | -18
COc1ccc(Cl)cc1NC(=O)C/C(C)=N/NC(=O)CC#N | / | / | 3061 | / | / | 0 | -18
Cc1ccc(S(=O)(=O)N(CC(=O)N2CCCCC2)c2cccc(C)c2)cc1 | / | / | 2905 | 8.4 | 5 | 1 | -14
O=C(NCCS(=O)(=O)N1CCC2(CC1)OCCO2)c1ccccc1 | 8 | 6 | ? | 1.0 | 10 | 1 | -15

The results go on.
SMILES | Mtb hypoxia rep | Mtb hypoxia rep growth | Bead autofluor | Sa RN4220 lethal | Sa ugtP lethal | BJeLR lethal | PrP UTR inh
COCc1cc(C)nc(SCC(=O)N2CCC(C)CC2)c1C#N | -3 | -3 | 10664 | -3.4 | -8 | 2 | -12
CCCCCCN(C(=O)CCl)c1ccccc1 | 23 | 24 | 3827 | 12 | 19 | 19 | -9
O=S(=O)(NC1CCN(S(=O)(=O)c2ccc3c(c2)OCCO3)C1)c1c(F)cccc1F (configuration not stated) | 10 | 9 | 4090 | 6.7 | -11 | / | -6
COc1ccc(-c2csc(NC(=O)CS(=O)(=O)c3ccc(F)cc3)n2)cc1OC | 1 | 6 | 5186 | 1.3 | 0 | 7 | -11
COc1ccccc1NC(=O)CSc1nnc(-c2ccccn2)n1Cc1ccco1 | 1 | 0 | 5786 | 0.3 | -5 | -7 | -17
O=C(CSc1nnc(-c2cccnc2)o1)Oc1ccccc1 | 18 | -2 | 3504 | 0.6 | 2 | -5 | -21
O=C(CC1C(=O)N(c2ccccc2)C(=S)N1c1ccccc1)c1ccc(Br)cc1 (configuration not stated) | 6 | -2 | 2088 | -2.4 | -23 | 4 | -16
CCCCN(C)Cc1c(C)[nH]c2ccc(C)cc2c1=O | 16 | 11 | 10061 | 1.4 | 2 | 4 | -25
COc1ccc(C2C(C(=O)N3CCOCC3)=C(C)NC3=C2C(=O)CC(C)(C)C3)cc1O (configuration not stated) | 4 | 1 | 23700* | 5.1 | 14 | 15 | -5
COC(=O)C1CCN(C(=O)Cc2ccccc2OC)CC1 | 7 | 3 | 4899 | 3.8 | 0 | 2 | -11
CSc1ccc(C2NC(=O)c3ccccc3N2)cc1 (configuration not stated) | 11 | 16 | 2986 | 1.4 | -1 | 2 | -32
CC(C)CN(CC(C)C)C(=O)CS(=O)(=O)Cc1ccccc1 | 15 | 5 | 7871 | 3.5 | 4 | -3 | -16
COc1ccc(-c2oc(NC(=O)CCl)c(C#N)c2-c2ccc(OC)cc2)cc1 | 4 | 11 | 2249 | 13 | 31 | 1 | 10
CN(C)S(=O)(=O)Oc1ccccc1C(=O)Nc1cccc(C(F)(F)F)c1 | -2 | 3 | 7947 | 3.1 | 0 | -1 | -28
COc1cc(NC(=S)N2CCOCC2)c(OC)cc1Cl | 8 | 9 | 5722 | 2.1 | 5 | 8 | -21
Cc1ccc(S(=O)(=O)N2CCOCC2)cc1NC(=O)COc1ccccc1Cc1ccccc1 | 1 | 3 | 3852 | 4.5 | -3 | / | -18
Cn1c(=O)c2c(c3ccccc31)OC(C)(C)CC2 | 8 | 3 | 2473 | 6.7 | -3 | -6 | 5
COc1ccc(/C=C/C(=O)OCC(=O)Nc2ccc(C)cc2)cc1S(=O)(=O)N1CCOCC1 | -7 | 2 | 2486 | 10 | -4 | -5 | -16
O=S1(=O)N=C2CCCCCN2C(c2ccc(Cl)cc2)N1 (configuration not stated) | -3 | -8 | 7052 | 12 | 13 | -5 | 41
CCOC(=O)CSc1nnc(CNC(=O)c2ccc(S(=O)(=O)N(C)C)cc2)n1C | 12 | -1 | 1963 | 3.3 | 5 | 4 | 3
CCCCn1c(SCc2nc3ccccc3s2)nc2ccccc2c1=O | 12 | 1 | 2155 | -2.6 | 9 | -5 | -20
CCc1cccc(CC)c1NC(=O)c1ccc(-n2cncn2)nc1 | -6 | 0 | 3147 | 1.8 | 4 | 8 | -2
Cc1sc2ncnc(N3CCC(C(=O)Oc4cccc(Cl)c4Cl)CC3)c2c1C | -2 | 0 | 4170 | 3.2 | 3 | -5 | -14
CCCNC(=O)NC1C(NC(=O)NCCC)N(C)C(=O)N1C (configuration not stated) | 8 | 0 | 2464 | 1.1 | 10 | 1 | -3
Cc1sc2nc(N3CCOCC3)[nH]c(=O)c2c1-c1ccccc1 | / | / | 2494 | / | / | 1 | -11
CC1CCN(c2ccc(C=NNc3nncn3N)cc2[N+](=O)[O-])CC1 | -6 | 3 | / | -1.7 | -8 | / | /
N#C/C(=C\c1ccc(OCc2ccccc2)cc1)C(=O)Nc1nc2c(s1)CCN(Cc1ccccc1)C2 | -7 | 3 | 3154 | 1.8 | -3 | -14 | -26
C/C(=N\N=C(N)N)c1ccccc1 | / | / | 3891 | / | / | -8 | -5
COc1ccc(NS(=O)(=O)c2ccc(N3CCOCC3)c(NC(=O)C(C)C)c2)cc1 | 13 | 1 | 4322 | 1.5 | 1 | 4 | -5
CC(C(=O)Nc1ccccn1)N1C(=O)C2C3C=CC(C3)C2C1=O (configuration not stated) | 6 | 6 | 10668 | 5.1 | -7 | -7 | -18
Cc1ccc(-c2cc(C(=O)Nc3cccc(S(=O)(=O)N(C)C)c3)c3ccccc3n2)o1 | 4 | -1 | 3847 | -0.6 | 7 | -6 | -16
O=C(NC1CCCc2ccccc21)c1ccc([N+](=O)[O-])cc1 (configuration not stated) | / | / | 3000 | 0.7 | 0 | 1 | 2
CC(=O)NC1C(=O)N=C(SCC(=O)NC(C)c2ccccc2)NC1=O (configuration not stated) | -6 | 1 | 8374 | 2.5 | 0 | -1 | -8
O=C(NCc1ccccc1)NC(=O)c1ccc(Cl)cc1 | -5 | 1 | 5859 | 0.0 | 6 | -8 | -15
O=C(CSc1ccccc1)Nc1nnc(C2CC2)s1 | 11 | 1 | 5833 | 1.6 | 2 | 3 | 1
Cc1nc2ccccc2n1N=Cc1ccc([N+](=O)[O-])s1 | 6 | 2 | / | 20 | 2 | / | /
O=C(CN1CCN(CC(=O)Nc2ccc(OCc3ccccc3)cc2)CC1)Nc1ccc(F)cc1 | 5 | 10 | 11673 | 3.3 | -12 | -6 | -36
CC(C)NC(=S)N1CCN(Cc2ccc3c(c2)OCO3)CC1 | 9 | 0 | 4330 | 1.9 | 4 | 7 | -67
COc1ccccc1-c1n[nH]c(=S)n1Cc1ccccc1 | -7 | 2 | 3849 | 2.7 | 1 | -7 | -6
CCCOc1ccc(CCc2n[nH]c(=S)n2-c2ccccc2)cc1 | 9 | 10 | 4285 | 13 | 4 | -11 | -9
Cc1cc(C)c2c(N)c(-c3nnc(SCc4ccc(Cl)cc4)n3C)sc2n1 | -4 | -4 | 3826 | 7.9 | 15 | -15 | -19
